High-throughput results from PubChem BioAssay.
Beta2AR agonist: beta2AR agonists driving receptor internalization, primary screen, cell-based, FAP fluorogen, flow cytometry. Beta-2 adrenergic receptor (Homo sapiens), P07550. Am2.2-beta2AR cells; reference of the scale not given here. response, % (test concentration not listed). hit rate 0.43% among 340,000;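 active = response above a set limit, near 3 SD of response in nonfluorescent compounds, cut at about 42% in these data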;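 also: stock transfer was 100 nL into about 11 µL; a reference agonist was the positive control; negative values mostly stem from fluorescent compounds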
Target sequence (P07550 whole entry, looked up): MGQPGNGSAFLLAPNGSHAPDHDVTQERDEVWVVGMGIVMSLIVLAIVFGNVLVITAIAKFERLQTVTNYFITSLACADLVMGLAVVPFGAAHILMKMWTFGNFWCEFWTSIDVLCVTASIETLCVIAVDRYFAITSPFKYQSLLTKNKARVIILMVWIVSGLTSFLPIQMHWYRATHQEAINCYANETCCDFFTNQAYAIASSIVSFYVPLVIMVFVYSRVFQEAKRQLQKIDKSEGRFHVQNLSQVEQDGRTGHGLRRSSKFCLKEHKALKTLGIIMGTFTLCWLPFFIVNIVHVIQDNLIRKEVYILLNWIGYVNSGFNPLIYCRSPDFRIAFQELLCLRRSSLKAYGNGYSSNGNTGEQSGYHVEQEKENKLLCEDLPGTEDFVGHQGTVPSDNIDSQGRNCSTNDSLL
UCH37 DUB inh: inhibitors of human UCH37 deubiquitinase, primary screen, biochemical, Ub-AMC cleavage, fluorescence. inhibition, % (test concentration not listed). Ubiquitin carboxyl-terminal hydrolase isozyme L5 (Homo sapiens), Q9Y5K5. purified proteasome/UCH37. hit rate 0.33% among 330,000;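 active = mean of two replicates above 20%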;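 also: 0% = compound-free wells with enzyme and 100% = wells lacking proteasome; stock transfer was 100 nL into about 20 µL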
Target sequence (Q9Y5K5 whole entry, looked up): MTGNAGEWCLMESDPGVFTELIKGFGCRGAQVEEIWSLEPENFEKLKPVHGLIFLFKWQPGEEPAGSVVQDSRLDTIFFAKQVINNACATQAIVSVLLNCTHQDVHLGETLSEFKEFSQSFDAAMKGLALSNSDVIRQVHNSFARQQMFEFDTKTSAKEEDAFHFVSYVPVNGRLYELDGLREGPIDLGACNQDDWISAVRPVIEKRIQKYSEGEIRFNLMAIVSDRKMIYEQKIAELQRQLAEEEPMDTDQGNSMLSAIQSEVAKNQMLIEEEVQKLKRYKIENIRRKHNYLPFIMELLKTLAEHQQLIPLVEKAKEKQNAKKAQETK
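Reagent: Ub-AMC substrate; assay system: Proteasome-associated human UCH37 deubiquitinase; controls: no-proteasome and no-compound wells; read-out: % inhibition of Ub-AMC cleavage fluorescence; timing: 30 min preincubation with enzyme, 25 min cleavage at room temperature; signal: AMC fluorescence from Ub-AMC cleavage, excitation 355 nm, emission 460 nm; buffer or medium: Tris-HCl pH 7.4 plus ovalbumin, ATP-MgCl2, DTT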
FGF22 binding: binders of human FGF22 protein, primary screen, FGF22 synaptogenesis inhibitor project, biophysical, thermal shift, single point. recombinant FGF22 thermal shift, SYPRO orange fluorescence; percent of sucrose octasulfate shift, DMSO zero. calls only at 9.99 µM. hit rate 1.5% among 340,000;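 active = melting point raised past a set limit in the mean and every replicate; inconclusive = no clear call; three in four hits are not shown here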
ALR inh: inhibitors of human ALR sulfhydryl oxidase, primary screen, biochemical, H2O2 detection, HRP-luminol luminescence, single point; purified ALR, DTT oxidation; inhibition, % (no concentration beside the values); hit rate 3.8% among 290,000; AID 485317, 2010;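 active = mean and each replicate at 75% or more; inconclusive = only one of the two met; inactive = neither met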;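 also: stock transfer was 7.5 nL into about 7.5 µL; 0% = neutral wells and 100% = wells with inactivated enzyme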
Target sequence (P55789 whole entry, looked up): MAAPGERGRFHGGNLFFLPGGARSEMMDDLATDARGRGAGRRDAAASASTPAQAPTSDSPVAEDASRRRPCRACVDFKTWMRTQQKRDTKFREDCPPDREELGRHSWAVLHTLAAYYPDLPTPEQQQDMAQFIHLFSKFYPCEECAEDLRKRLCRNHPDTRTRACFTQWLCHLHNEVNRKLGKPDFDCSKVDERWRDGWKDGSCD
E coli growth: E. coli growth inhibition, primary screen, OD600. AID 1053175, 2014. OD600 absorbance (concentration not given with the values). Escherichia coli growth, 23 h; stronger effect = lower value. hit rate 0.21% among 330,000;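 active = OD600 absorbance below the run mean of sample wells minus 3.6 SD, in any replicate, cut at about 0.56 in these data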;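 also: stock transfer was 300 nL into about 60 µL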
LANA-H2A inh: blockers of LANA interaction with H2A/H2B – biochemical, FP readout, HTS, primary screen. hit rate 0.6% among 320,000. inhibition, % (test concentration not listed). cell-free LANA-H2A/H2B peptide, fluorescence polarization. AID 2629, 2010. Protein LANA1 (Human herpesvirus 8 type P (isolate GK18)), Q9QR71; in the data active = inhibition mostly above about 10%, no sharp cut-off; inactive = mostly below about 6.7%;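 also: stock transfer was 7.5 nL into about 10 µL; 0% = median of vehicle wells and 100% = median of positive control wells; one replicate is shown; the record names a cut of 25% in any replicate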
HNF4A DNA FP: change in binding of human HNF4A to DNA, primary screen, biochemical, fluorescence polarization, FITC-DNA; Hepatocyte nuclear factor 4-alpha (Homo sapiens), P41235; 1 h; activity change, % at 10 µM; hit rate 0.3% among 360,000; in the data active = activity change above about 30%, passing the limit was not always enough;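 also: controls were the assay level and a saturating level of protein; the project sought stronger binding though the title names inhibitors; some compounds called inactive have numbers as strong as hits; positive values seem to mean higher polarization but the record does not say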
* hit, by the source's call; i = inactive; u = inconclusive; x = not tested or not shown.

SMILES	Beta2AR agonist	UCH37 DUB inh	FGF22 binding	ALR inh	E coli growth	LANA-H2A inh	HNF4A DNA FP
N#CC1=C(N2CCCCC2)c2cc3c(n2C1=O)CCCC3	3	-1.5	x	-2	0.74	-7.8	1.0
CCCC1CC(=O)OC1(C)C(=O)CSc1n[nH]c(-c2ccccc2)n1 (centres undefined)	x	x	i	-2	x	-3.7	x
Cn1cc(CN2CCC(n3nccc3NC(=O)C3CCCC3)CC2)cn1	-2	4.3	i	-3	0.72	-0.1	-1.0
O=C(CC1C(=O)NCCN1C1CCCC1)NCc1cccc(OC(F)(F)F)c1 (centres undefined)	-4	x	i	-8	x	2.7	-1.6
CCc1cc2c(=O)[nH]c(Cc3ccc(Cl)cc3)nc2s1	-2	2.2	x	x	0.78	0.9	2.3
Nc1nnc(CCN2C(=O)CSC2=O)s1	0	5.5	x	-4	0.66	1.3	-1.4
Cc1nc(NC(=O)CC(C)C)sc1-c1csc(Nc2ccc(Cl)cc2Cl)n1	16	-4.1	i	-2	x	-3.2	12
Cc1ccc2oc(=O)c3cnn(CC(=O)NC4CCC(C)CC4)c3c2c1 (centres undefined)	-4	6.7	i	15	0.78	-2.1	-2.0
O=C(Nc1cccc(-c2nc3ccccc3s2)c1)c1cc(=O)c2ccccc2o1	11	-0.2	i	-12	0.73	1.1	1.3
CC1=C(C(=O)OCCOC(C)C)C(c2cc3c(cc2Br)OCO3)CC(=O)N1 (centres undefined)	3	1.1	x	-10	0.72	0.6	-0.2
COc1cccc(NC(=O)CN(C)C(C)C(=O)N2CCCC2)c1 (centres undefined)	14	x	i	-11	x	3.1	-3.4
Cn1nc(-c2ccccc2)c(C(O)c2ccc(Cl)cc2)c1Cl (centres undefined)	-2	4.0	x	-17	0.68	-2.1	4.2
CC(=O)c1cc2c(cc1N/C(=N/S(=O)(=O)c1ccc(C)cc1)c1ccccc1)OCO2	-10	-5.8	x	x	0.69	-1.4	-5.2
COc1ccc(NC2=C(Cl)C(=O)N(CCc3ccccc3)C2=O)cc1	2	0.2	i	0	0.68	4.8	-2.0
CC1(C(=O)OCC(=O)c2c[nH]c3ccccc23)CC1(Cl)Cl (centres undefined)	5	6.4	x	2	0.62	1.0	-1.4
CCC(C(=O)c1ccccc1)N(C(=O)c1ccccc1Cl)N1C(=O)C2C3C=CC(C3)C2C1=O (centres undefined)	0	2.0	x	-3	0.67	-2.8	-2.2
CCC(C)Nc1nc(N)c([N+](=O)[O-])c(Nc2cc(OC)ccc2OC)n1 (centres undefined)	23	5.7	i	-5	0.69	-1.3	1.1
CCN(CC)CCN(Cc1cc2cc3c(cc2[nH]c1=O)OCO3)C(=S)NC	3	-158	i	-2	0.68	0.8	3.9
CC(=O)Nc1ccc(/C=C2\Sc3ccccc3C2=O)cc1	1	2.1	i	-1	0.67	3.1	3.8
COc1cccc(C(=O)Cn2c(=O)n(CCC(=O)NCC3CCCO3)c(=O)c3cc(OC)c(OC)cc32)c1 (centres undefined)	0	4.4	i	-18	0.7	4.0	2.6
Cn1nnnc1SCC(=O)NC(=O)NCc1ccccc1	-5	-0.3	x	1	0.74	-1.6	-2.9
Cc1cccc(/N=C/c2nc(-c3ccccc3Br)oc2O)n1	-6	x	i	11	x	-1.6	-1.0
COc1cccc2c1OC1(C)CC2NC(=O)N1 (centres undefined)	6	3.8	x	-8	0.7	3.9	-5.3
Oc1cc(NCc2ccc(F)cc2)cc2cccnc12	4	3.1	i	22	0.68	3.1	-4.9
N#Cc1cc(C(=O)c2cc(F)ccc2O)cn(Cc2ccccc2)c1=O	1	4.7	i	42	0.68	0.7	-0.3

2 compounds from above, showing only FGF22 binding and E coli growth:
| molecule | FGF22 binding | E coli growth |
| --- | --- | --- |
| COc1ccc(NC2=C(Cl)C(=O)N(CCc3ccccc3)C2=O)cc1 | i | 0.68 |
| CC1(C(=O)OCC(=O)c2c[nH]c3ccccc23)CC1(Cl)Cl (centres undefined) | x | 0.62 |

Further entries
SMILES	Beta2AR agonist	UCH37 DUB inh	FGF22 binding	ALR inh	E coli growth	LANA-H2A inh	HNF4A DNA FP
COc1ccc(-n2nc(C(=O)NCC(=O)NCCCN3CCOCC3)c3ccccc3c2=O)cc1	3	0.4	i	-1	0.7	-4.4	-1.3
COc1ccc(Cl)cc1N(C(=O)Nc1cccc(Cl)c1)C1=NCC(C)S1 (centres undefined)	6	0.4	x	0	0.64	-1.2	-1.4
COc1cccc(CSc2nnnn2-c2ccc(O)cc2)c1	9	6.1	i	1	0.66	3.3	5.0
CCCc1cc(=O)[nH]c(SC/C=C/c2ccccc2)n1	-1	6.5	i	1	0.69	-3.9	1.5
CCOc1ccc(-c2n[nH]c(=S)o2)cc1	9	-9.4	i	54	0.67	-1.5	-0.9
CCOC(=O)Cc1nnc(NC(=O)CSc2ccc(Cl)cc2)s1	3	2.4	x	-16	0.71	6.9	0.0
CC(NCc1ccc(N(C)C)cc1)C1CC2CCC1C2 (centres undefined)	0	1.6	x	98*	0.67	1.4	5.8
O=C(COc1ccc(Cl)cc1Cl)Nn1c(=S)[nH]c2ncccc2c1=O	-2	4.4	i	u	0.67	-1.0	1.1
CCCc1cc(=O)[nH]c(SCC(=O)N(CC)c2c(N)n(Cc3ccccc3)c(=O)[nH]c2=O)n1	8	1.1	i	x	0.65	2.9	4.6
O=C(COC(=O)Cc1ccsc1)Nc1ccc(S(=O)(=O)N2CCOCC2)cc1	9	1.9	i	-4	0.66	8.9	1.3
O=C1OC(=O)C2C1[C@@H]1CC[C@H]2O1 (some centres undefined)	-2	1.2	i	x	x	-4.9	0.6
Brc1ccc(-c2nc3ncccn3c2NC2CCCCC2)o1	3	3.6	x	99*	0.67	0.9	-0.2
COc1cccc(C(C)N(C)Cc2nc(COc3ccccc3)no2)c1 (centres undefined)	-3	0.6	i	-3	0.71	0.9	4.4
CC(C)C12CN3CC(C(C)C)(CN(C1)C3c1ccco1)C2=O (centres undefined)	-5	2.8	x	-2	0.73	-0.3	1.2
NS(=O)(=O)c1ccc(CCNC(=S)Nc2ccc(F)cc2)cc1	-11	1.0	i	37	0.68	0.8	0.6
Cc1nc(NC(CC(C)C)C(=O)O)c2nc(C)oc2n1 (centres undefined)	6	-0.1	x	-31	0.67	11*	1.1
Cc1ccc(S(=O)(=O)Cc2ccc(C(=O)NCc3cccs3)o2)cc1	0	-0.9	x	-7	0.69	5.0	-4.4
Nc1nc(CSC(=S)N2CCCCC2)nc(Nc2ccccc2)n1	-10	4.8	i	5	0.69	-0.1	-0.2
C/C(=N/NC(=O)CCCOc1ccc(Cl)cc1Cl)c1ccc(C)o1	-4	x	x	6	x	-4.7	-1.3
CCOc1cc(/C=C2\C(=O)N(c3ccc(C(N)=O)cc3)N=C2C)ccc1OC(=O)c1cccs1	14	2.0	x	2	0.73	-2.9	-11
Cc1ccc(CCN2CC(C(=O)NCc3ccco3)CC2=O)cc1 (centres undefined)	9	2.5	x	1	0.66	2.8	-0.9
Cc1ccsc1/C=C1/CN(C)Cc2c1nc1ccccc1c2C(=O)O	0	-2.8	i	6	0.69	2.7	-10
O=C(CSc1ccc(Cl)cc1)N1CCN(c2c(Cl)cccc2[N+](=O)[O-])CC1	8	-6.1	x	-7	0.75	-8.0	-0.2
CC(C(=O)Nc1cccc([N+](=O)[O-])c1)N(c1ccccc1)S(C)(=O)=O (centres undefined)	-4	0.9	i	-15	0.71	2.0	4.4
Cc1noc(C)c1COc1ccc(C(=O)NCc2ccccn2)cc1	11	-0.2	x	-2	0.65	-4.2	3.0
The list goes on.
SMILES	Beta2AR agonist	UCH37 DUB inh	FGF22 binding	ALR inh	E coli growth	LANA-H2A inh	HNF4A DNA FP
O=c1c2ccccc2nnn1COc1cccc2ccccc12	-3	6.4	i	-14	0.68	-0.4	-1.6
Cc1ccc(S(=O)(=O)/C(C#N)=C/c2c[nH]c3ccccc23)cc1	9	0.3	x	-5	0.64	17*	8.4
Cc1ccc(S(=O)(=O)N(C)CC(=O)NNC(=O)CCNS(=O)(=O)c2cccc(C)c2)cc1	0	x	i	-4	x	2.2	-2.5
CC1CCCCC1NS(=O)(=O)c1ccc2c(c1)CC(=O)N2C (centres undefined)	7	-0.3	i	25	0.73	-2.6	2.6
CSC(=NC#N)N1CCN(c2ccccn2)CC1	0	x	i	53	x	30*	0.9
S=c1[nH]nc(-c2ccccc2)n1/N=C/c1cccc(Br)c1	12	x	i	x	x	3.6	2.2
N/C(=N\OC(=O)c1cccc(Cn2cc(C(F)(F)F)ccc2=O)c1)c1ccc(Cl)cc1	-11	-0.8	i	-3	0.71	3.1	-3.1
Cc1ccc(S(=O)(=O)Nn2c(C)ccc2C)cc1	-4	1.6	x	-5	0.78	5.6	11
CCCCn1c(N)c(N(CCOC)C(=O)CCCc2cccs2)c(=O)[nH]c1=O	-1	-1.0	i	5	0.69	2.6	1.9
CCOC(=O)C1CCN(S(=O)(=O)c2ccc(OC)c(Cl)c2Cl)CC1	-2	4.1	i	0	0.69	2.7	-1.3
O=C(N/N=C/c1cc(Br)c(O)c(Br)c1)C1CC1	3	x	i	x	x	4.6	2.8
Cc1nnc(NC(=O)CSc2nnc3ncccn23)s1	-16	1.6	i	-4	0.61	-6.7	2.5
Cc1cccc(Oc2ccc(NC(=O)c3ccccc3C(=O)O)cc2)c1	5	-1.3	i	98*	0.71	-5.0	8.0
O=C(Nc1ccccn1)c1ccc(Br)s1	-6	1.5	i	-12	0.6	-0.4	3.9
Cc1cc(C)c(C)c(S(=O)(=O)N2CCN(C(=O)c3ccco3)CC2)c1C	-10	3.1	i	8	0.66	-1.8	-3.6
O=C(O)Cn1nc(-c2ccc(Cl)cc2)ccc1=O	-6	-1.8	i	2	0.62	1.9	3.4
O=C(CCCC(=O)NCc1ccc(F)cc1)NCc1ccc(F)cc1	-9	5.2	x	-1	0.65	-6.5	-0.5
CC(SCc1nc2sc3c(c2c(=O)[nH]1)CCCC3)C(=O)Nc1ccccn1 (centres undefined)	21	-26	i	-8	0.69	3.0	24
COc1ccc(C2C(C#N)=C(/N=C/N3CCN(C)CC3)OC3=C2C(=O)CC(C)(C)C3)cc1 (centres undefined)	0	x	x	1	x	1.4	-0.1
CCSc1ccccc1C(=O)NCc1ccc(S(N)(=O)=O)cc1	3	-1.6	x	-3	0.63	2.5	0.3
Cc1cc(C(=O)NNS(=O)(=O)c2ccc(F)cc2)nn1C(C)(C)C	-6	2.1	i	34	0.67	-0.3	0.7
COc1ccc(C(=O)Nc2cccc3ccccc23)cc1	1	1.9	i	-40	0.72	-5.1	2.6

Of the compounds above, seven have fluorine.
SMILES	Beta2AR agonist	UCH37 DUB inh	FGF22 binding	ALR inh	E coli growth	LANA-H2A inh	HNF4A DNA FP
O=C(CC1C(=O)NCCN1C1CCCC1)NCc1cccc(OC(F)(F)F)c1 (centres undefined)	-4	x	i	-8	x	2.7	-1.6
Oc1cc(NCc2ccc(F)cc2)cc2cccnc12	4	3.1	i	22	0.68	3.1	-4.9
N#Cc1cc(C(=O)c2cc(F)ccc2O)cn(Cc2ccccc2)c1=O	1	4.7	i	42	0.68	0.7	-0.3
NS(=O)(=O)c1ccc(CCNC(=S)Nc2ccc(F)cc2)cc1	-11	1.0	i	37	0.68	0.8	0.6
N/C(=N\OC(=O)c1cccc(Cn2cc(C(F)(F)F)ccc2=O)c1)c1ccc(Cl)cc1	-11	-0.8	i	-3	0.71	3.1	-3.1
O=C(CCCC(=O)NCc1ccc(F)cc1)NCc1ccc(F)cc1	-9	5.2	x	-1	0.65	-6.5	-0.5
Cc1cc(C(=O)NNS(=O)(=O)c2ccc(F)cc2)nn1C(C)(C)C	-6	2.1	i	34	0.67	-0.3	0.7

Some of the compounds tested (hit frequency here may not be typical).
